Source: PubChem BioAssay
S1P4 antag = human S1P4 receptor antagonism | O95977 | S1P4-expressing cells, antagonist mode, reporter read-out | inhibition, % at 4.98 µM | hit rate 0.26% among 220,000; in the data active means inhibition above about 29%;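 further: 0% = wells stimulated with agonist and 100% = vehicle wells without agonist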
TRPN1 ag = agonists of zebrafish TRPN1 channel; HEK293 zebrafish TRPN1-YFP, Fluo-8 calcium fluorescence; 100% = response to 87 µM carbachol; activation, % at 3 µM; hit rate 0.18% among 220,000; AID 1424;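 active means activation above its plate's cutoff, the mean activation of test wells on that plate plus 3 SD, cut at about 19% in these data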;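 further: 0% = DMSO alone and 100% = 87 µM carbachol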
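Material – zebrafish TRPN1-YFP in HEK293 cells · Doses – 3 µM single point · Schedule – dye 1 h 37 °C plus 30 min RT · Signal – Fluo-8 calcium fluorescence, excitation 470-495 nm, emission 515-575 nm · Read-out – % activation versus carbachol response · Control set – carbachol high, DMSO low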
S1P4 agonist = human S1P4 receptor agonism; hit rate 0.35% among 220,000; S1P4-expressing cell line, agonist reporter assay; activation, % at 4.98 µM; in the data active means activation above about 11%;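 further: 0% = DMSO vehicle and 100% = reference agonist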
PERK inhibitor = blocks human PERK kinase; inhibition, % at 5.6 µM; hit rate 0.17% among 220,000; Q9NZJ5; CHO PERK-DD fusion, SEAP luminescence translation reporter;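 active means inhibition above the mean inhibition of all tested compounds plus 3 SD, set separately per screening campaign, cut at about 2.9% in these data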;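 further: PERK kinase domain activated by AP20187 dimerizer at 100 nM; 0% = DMSO with dimerizer and 100% = rapamycin at 8.4 µM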
TRPML3 agonist = activates the human TRPML3 channel. HEK293 TRPML3-YFP, Fluo-8 calcium fluorescence; 100% = the carbachol control signal. activation, % at 3 µM. hit rate 0.29% among 220,000. AID 1448;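 active means activation above its plate's cutoff, the mean activation of the plate's test wells plus 3 SD, cut at about 12% in these data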;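 further: 0% = DMSO only wells and 100% = carbachol wells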
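Material: HEK293 cells stably carrying human TRPML3-YFP; compound dosing: single dose, 3 µM final nominal compound, 0.3% DMSO final; incubation: 1-h 37 °C dye load, 5-s basal, 120-s post-compound reads; technique: Fluo-8 intracellular calcium fluorescence, excitation 470-495 nm, emission 515-575 nm; read-out basis: percent activation from peak-to-basal fluorescence ratio, scaled between DMSO and carbachol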
An asterisk follows results filed as active.

1	COc1ccccc1C(=O)NNC(=S)NC(=O)c1ccco1
2	Cc1ccccc1C(=O)N/N=C/c1ccc(Sc2ccccn2)o1
3	CN[C@H]1CC[C@@H](c2ccc(Cl)c(Cl)c2)c2ccccc21
4	Nc1ccn([C@@H]2O[C@H](CO)[C@@H](O)[C@@H]2O)c(=O)n1
5	CC(=O)Nc1ccc(Oc2ncccn2)cc1
6	CCc1nnc(NS(=O)(=O)c2ccc(NC(=S)NC(=O)/C=C/c3ccccc3)cc2)s1
7	COc1cccc(N2CCN(CC(=O)Nc3ccc(-n4cnnn4)cc3)CC2)c1

| Screen / compound no. | 1 | 2 | 3 | 4 | 5 | 6 | 7 |
| --- | --- | --- | --- | --- | --- | --- | --- |
| S1P4 antag | -7.8 | -19.0 | -6.2 | 14.0 | -5.2 | -17.8 | -19.2 |
| TRPN1 ag | 1.3 | 0.5 | 2.4 | -0.9 | 0.4 | 1.5 | -0.6 |
| S1P4 agonist | -0.8 | 1.4 | 0.3 | 11.5* | 0.3 | 3.5 | -2.8 |
| PERK inhibitor | -0.9 | -0.1 | 1.1 | 0.4 | 0.9 | 0.7 | 0.9 |
| TRPML3 agonist | 1.5 | 0.4 | 2.5 | 0.9 | 0.4 | 0.6 | -0.3 |

Screen by screen, as entered above.
TRPN1 ag for nos. 1 to 7, in order: 1.3, 0.5, 2.4, -0.9, 0.4, 1.5, -0.6
S1P4 antag for nos. 1 to 7, in order: -7.8, -19.0, -6.2, 14.0, -5.2, -17.8, -19.2

Part of the list above in order of molar mass, ascending.
5	CC(=O)Nc1ccc(Oc2ncccn2)cc1
4	Nc1ccn([C@@H]2O[C@H](CO)[C@@H](O)[C@@H]2O)c(=O)n1
6	CCc1nnc(NS(=O)(=O)c2ccc(NC(=S)NC(=O)/C=C/c3ccccc3)cc2)s1

| Screen / compound no. | 5 | 4 | 6 |
| --- | --- | --- | --- |
| S1P4 antag | -5.2 | 14.0 | -17.8 |
| TRPN1 ag | 0.4 | -0.9 | 1.5 |
| S1P4 agonist | 0.3 | 11.5* | 3.5 |
| PERK inhibitor | 0.9 | 0.4 | 0.7 |
| TRPML3 agonist | 0.4 | 0.9 | 0.6 |

A portion of the library (hit frequency here may not be typical).
